# UUG fidelity: modulators of yeast start codon fidelity, primary screen, whole organism, S. cerevisiae, single point, plate reader. S. cerevisiae UUG-firefly luciferase reporter, luminescence/redox ratio. activity score, % at 18.7 µM. hit rate 0.13% among 350,000. AID 602363, 2012;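 active means replicate mean at a twofold rise or more, about +100% in these data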;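 further: firefly luciferase made from a UUG start codon reports start codon fidelity; reporter light over untreated wells divided by growth signal over untreated wells; some hits fall short of that in this replicate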
# HIV Env fusion: inhibitors of HIV-1 Env-driven cell-cell fusion, primary screen, HeLa-JRFL effector, CEM21 target cells, luciferase; inhibition, % at 12.3 µM; AID 651610, 2012; hit rate 1.1% among 360,000;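 active means mean replicate inhibition score of at least 50 and every replicate individually at or above 50; inconclusive means only one of the two criteria met; inactive means mean below 50 and not all replicates reaching 50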;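 further: 0% = plate neutral controls and 100% = maraviroc near 300 nM; one replicate is shown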
# Numbers without * were called inactive; ? = inconclusive; [ ] = dose if it differs, or a comment. Not all compounds are listed (hit frequency here may not be typical).
compound: C[C@@H]1CCCCO[C@@H](CN(C)Cc2ccncc2)[C@@H](C)CN([C@H](C)CO)C(=O)c2cc(NC(=O)Nc3ccc(F)cc3)ccc2O1
  UUG fidelity = -9.1	HIV Env fusion = 15.3[16.7 µM]

compound: COc1ccc(S(=O)(=O)Nc2ccc3c(c2)C(=O)N([C@H](C)CO)C[C@H](C)[C@H](CN(C)Cc2ccc4c(c2)OCO4)OCCCC[C@H](C)O3)cc1
  UUG fidelity = 18.5	HIV Env fusion = -43.6[16.7 µM]

compound: CCCNC(=O)C[C@H]1CC[C@@H]2[C@@H](COc3ccc(NC(=O)NCC)cc3C(=O)N2C)O1
  UUG fidelity = -5.0	HIV Env fusion = 5.4[16.7 µM]

compound: CCCN(C)C[C@H]1OCCCC[C@H](C)Oc2ccc(N(C)C)cc2C(=O)N([C@H](C)CO)C[C@H]1C
  UUG fidelity = 31.3	HIV Env fusion = 0.6[16.7 µM]

compound: C[C@H]1CN([C@@H](C)CO)C(=O)Cc2cc(NS(=O)(=O)c3ccc(Cl)cc3)ccc2O[C@H]1CN(C)Cc1ccc(C(F)(F)F)cc1
  UUG fidelity = -3.1	HIV Env fusion = 15.1[16.7 µM]

compound: Cc1noc(C)c1S(=O)(=O)N(C)C[C@@H]1OCCCC[C@@H](C)Oc2ccc(NC(=O)c3ccccc3)cc2C(=O)N([C@H](C)CO)C[C@@H]1C
  UUG fidelity = 0.4	HIV Env fusion = -8.7[16.7 µM]

compound: COc1ccc(S(=O)(=O)N(C)C[C@@H]2OCCCC[C@@H](C)Oc3ccc(NC(=O)Nc4ccc(F)cc4)cc3C(=O)N([C@H](C)CO)C[C@@H]2C)cc1
  UUG fidelity = 1.1	HIV Env fusion = -22.7[16.7 µM]

compound: C[C@@H]1CN([C@@H](C)CO)C(=O)c2cc(NS(=O)(=O)c3ccc(Cl)cc3)ccc2O[C@@H](C)CCCCO[C@H]1CN(C)S(=O)(=O)c1cn(C)cn1
  UUG fidelity = -8.6	HIV Env fusion = 0.5[16.7 µM]

compound: C[C@@H]1CN([C@H](C)CO)C(=O)c2cccc(NS(=O)(=O)c3ccc(Cl)cc3)c2O[C@@H]1CN(C)S(=O)(=O)c1ccc(Cl)cc1
  UUG fidelity = -6.7	HIV Env fusion = 13.2[16.7 µM]

compound: Cc1noc(C)c1NC(=O)N(C)C[C@@H]1Oc2ccc(NC(=O)Nc3ccc4c(c3)OCO4)cc2C(=O)N([C@@H](C)CO)C[C@@H]1C
  UUG fidelity = -8.7	HIV Env fusion = 1.0[16.7 µM]

compound: N#C[C@H]1[C@H](c2ccc(C#CC3CCCC3)cc2)[C@@H](CO)N1C(=O)Nc1ccc(F)cc1
  UUG fidelity = -18.8	HIV Env fusion = 55.6*[16.7 µM]

compound: C[C@H]1CN([C@@H](C)CO)C(=O)c2cc(NS(C)(=O)=O)ccc2O[C@H]1CN(C)Cc1ccc(C(F)(F)F)cc1
  UUG fidelity = -14.7	HIV Env fusion = 40.7[16.7 µM]

compound: C[C@H]1CN([C@@H](C)CO)C(=O)c2cc(/C=C/c3ccccc3)cnc2O[C@@H]1CN(C)Cc1cncnc1
  UUG fidelity = 0.2	HIV Env fusion = -7.1[16.7 µM]

compound: CCCNC(=O)N(C)C[C@@H]1Oc2cc(C#CC(C)C)ccc2S(=O)(=O)N([C@H](C)CO)C[C@@H]1C
  UUG fidelity = 3.4	HIV Env fusion = -17.5[16.7 µM]

compound: C[C@@H]1CCCCO[C@H](CN(C)S(=O)(=O)c2ccccc2)[C@H](C)CN([C@H](C)CO)C(=O)c2cc(NS(=O)(=O)c3ccc(F)cc3)ccc2O1
  UUG fidelity = -0.4	HIV Env fusion = 36.1[16.7 µM]

compound: C[C@H]1CN([C@@H](C)CO)C(=O)c2cc(C#Cc3ccccc3F)cnc2O[C@H]1CN(C)C(=O)c1ccc2c(c1)OCO2
  UUG fidelity = 17.0	HIV Env fusion = 15.1[16.7 µM]

compound: CO[C@@H]1CN(C)C(=O)c2cc(NS(=O)(=O)c3ccccc3)ccc2OC[C@H](C)N(Cc2ccccn2)C[C@H]1C
  UUG fidelity = -16.0	HIV Env fusion = -82.1[16.7 µM]

compound: C[C@H]1CN([C@@H](C)CO)C(=O)c2cc(C#CC3CCCCC3)cnc2O[C@H]1CN(C)C(=O)c1ccncc1
  UUG fidelity = -6.8	HIV Env fusion = -11.1[16.7 µM]

compound: CC(C)CC#Cc1ccc2c(c1)O[C@@H](CN(C)C(=O)NC(C)C)[C@@H](C)CN([C@H](C)CO)S2(=O)=O
  UUG fidelity = 5.6	HIV Env fusion = 7.2[16.7 µM]

compound: Cc1noc(C)c1S(=O)(=O)N(C)C[C@@H]1OCCCC[C@@H](C)Oc2ccc(NS(=O)(=O)c3cccs3)cc2C(=O)N([C@@H](C)CO)C[C@H]1C
  UUG fidelity = 0.9	HIV Env fusion = -20.3[16.7 µM]

compound: COc1ccccc1C(=O)Nc1ccc2c(c1)C(=O)N(C)C[C@@H](OC)[C@@H](C)CN[C@@H](C)CO2
  UUG fidelity = -1.3	HIV Env fusion = -8.8[16.7 µM]

compound: COc1ccc(S(=O)(=O)N(C)C[C@H]2Oc3cc(C#CC4CC4)ccc3S(=O)(=O)N([C@H](C)CO)C[C@H]2C)cc1
  UUG fidelity = 8.4	HIV Env fusion = 37.2[16.7 µM]

compound: CCCC(=O)Nc1ccc2c(c1)OC[C@H](C)N(CC1CCCC1)C[C@@H](C)[C@H](OC)CN(C)C2=O
  UUG fidelity = -1.4	HIV Env fusion = -15.7[16.7 µM]

compound: O=C(C[C@@H]1CC[C@@H]2[C@H](COC[C@H](O)CN2C(=O)c2ccccc2)O1)NCCCN1CCOCC1
  UUG fidelity = -8.7	HIV Env fusion = -15.7[16.7 µM]

compound: CCC(=O)N1C[C@H](C)[C@H](OC)CN(C)C(=O)c2cc(NC(=O)c3ccc(F)cc3)ccc2OC[C@@H]1C
  UUG fidelity = -1.1	HIV Env fusion = -15.5[16.7 µM]

compound: COc1cccc(S(=O)(=O)N[C@@H]2CC[C@H](CCn3cc(-c4ccccc4)nn3)O[C@H]2CO)c1
  UUG fidelity = -3.8	HIV Env fusion = 14.2[16.7 µM]

compound: CC(=O)N(C)C[C@@H]1Oc2ncc(-c3cncnc3)cc2C(=O)N([C@@H](C)CO)C[C@H]1C
  UUG fidelity = -14.0	HIV Env fusion = 12.5[16.7 µM]

compound: CN(C)C(=O)C[C@H]1CC[C@H]2[C@@H](COC[C@@H](O)CN2Cc2nccs2)O1
  UUG fidelity = -12.1	HIV Env fusion = -9.6[16.7 µM]

compound: C[C@@H]1CN([C@@H](C)CO)C(=O)Cc2cc(NC(=O)Nc3ccc(F)cc3)ccc2O[C@H]1CN(C)C(=O)Nc1ccc(F)cc1
  UUG fidelity = -1.9	HIV Env fusion = 8.2[16.7 µM]

compound: O=C(C[C@H]1C[C@H]2c3cc(NC(=O)CC4CC4)ccc3O[C@H]2[C@@H](CO)O1)NCc1ccc(-c2ccccc2)cc1
  UUG fidelity = -4.0	HIV Env fusion = 19.7[16.7 µM]

compound: O=C(C[C@H]1CC[C@H](NC(=O)c2ccccc2)[C@H](CO)O1)NCCc1ccncc1
  UUG fidelity = -1.1	HIV Env fusion = -2.8[16.7 µM]

compound: NCC[C@@H]1CC[C@@H](NC(=O)C2CCCCC2)[C@@H](CO)O1
  UUG fidelity = 2.5	HIV Env fusion = 0.8[16.7 µM]

compound: C[C@H]1CN([C@@H](C)CO)C(=O)c2cc(C#CCc3ccccc3)cnc2O[C@H]1CN(C)Cc1cccnc1
  UUG fidelity = -1.8	HIV Env fusion = -8.1[16.7 µM]

compound: CCC(=O)Nc1ccc2c(c1)C(=O)N(C)C[C@H](OC)[C@@H](C)CN(C(C)=O)[C@H](C)CO2
  UUG fidelity = -2.5	HIV Env fusion = -4.5[16.7 µM]

compound: C[C@H](CO)N1C[C@H](C)[C@@H](CN(C)C(=O)NC2CCCCC2)OCCCC[C@H](C)Oc2ccc(NC(=O)Nc3ccccc3)cc2C1=O
  UUG fidelity = -5.3	HIV Env fusion = 23.3[16.7 µM]

compound: CO[C@H]1CN(C)C(=O)c2cc(NS(=O)(=O)CC(F)(F)F)ccc2OC[C@@H](C)N(C)C[C@H]1C
  UUG fidelity = 5.6	HIV Env fusion = 2.3[16.7 µM]

compound: COC(=O)c1c2oc(c1C(=O)OC)C(=O)N(C)Cc1cn(nn1)C[C@@H](C)NC(=O)N[C@H](CO)CC2
  UUG fidelity = 1.4	HIV Env fusion = -1.4[16.7 µM]

compound: CN1C(=O)c2cc(NC(=O)C3CCOCC3)ccc2OC[C@H]2O[C@@H](CC(=O)O)CC[C@@H]21
  UUG fidelity = -9.5	HIV Env fusion = 14.4[16.7 µM]

compound: CN(C)C(=O)C[C@H]1CC[C@H]2[C@@H](COC[C@H](O)CN2CC2CCCCC2)O1
  UUG fidelity = -3.5	HIV Env fusion = 5.6[16.7 µM]

compound: COCC(=O)N1[C@@H](C#N)[C@@H](c2ccc(C3=CCCC3)cc2)[C@@H]1CO
  UUG fidelity = 5.3	HIV Env fusion = -10.6[16.7 µM]

compound: CCCNC(=O)N[C@H]1C=C[C@@H](CC(=O)NC2CCCCC2)O[C@H]1CO
  UUG fidelity = 3.6	HIV Env fusion = -9.8[16.7 µM]

compound: C[C@@H]1CN([C@@H](C)CO)S(=O)(=O)c2ccc(C3=CCCC3)cc2O[C@@H]1CN(C)Cc1ccccc1F
  UUG fidelity = 20.7	HIV Env fusion = 28.2[16.7 µM]

compound: C[C@@H]1CCCCO[C@H](CN(C)C)[C@H](C)CN([C@H](C)CO)C(=O)c2cc(NC(=O)c3ccncc3)ccc2O1
  UUG fidelity = 3.3	HIV Env fusion = -2.0[16.7 µM]

compound: COc1ccc(CN(C)C[C@@H]2OCCCC[C@H](C)Oc3ccc(NS(=O)(=O)c4ccc(Cl)cc4)cc3C(=O)N([C@H](C)CO)C[C@H]2C)cc1
  UUG fidelity = 1.8	HIV Env fusion = 10.7[16.7 µM]

compound: COc1ccc(CN(C)C[C@H]2OCCCC[C@@H](C)Oc3ccc(NC(=O)CCCN(C)C)cc3C(=O)N([C@@H](C)CO)C[C@H]2C)cc1
  UUG fidelity = 17.0	HIV Env fusion = 20.5[16.7 µM]

compound: CNC(=O)C[C@H]1CC[C@@H]2[C@@H](COc3ccc(NC(=O)c4ccc5c(c4)OCO5)cc3C(=O)N2C)O1
  UUG fidelity = 3.3	HIV Env fusion = ?

compound: CC(C)NC(=O)N(C)C[C@@H]1Oc2cc(C#Cc3ccccn3)ccc2S(=O)(=O)N([C@@H](C)CO)C[C@@H]1C
  UUG fidelity = 6.2	HIV Env fusion = -8.4[16.7 µM]

compound: COc1ccccc1CNC(=O)C[C@@H]1C[C@@H]2c3cc(NC(=O)CC4CC4)ccc3O[C@@H]2[C@@H](CO)O1
  UUG fidelity = 5.0	HIV Env fusion = 31.2[16.7 µM]

compound: CC(C)NC(=O)NCC[C@H]1CC[C@H](NC(=O)c2ccc(F)cc2)[C@@H](CO)O1
  UUG fidelity = -3.2	HIV Env fusion = 1.8[16.7 µM]

compound: C[C@@H]1CN([C@H](C)CO)C(=O)Cc2cc(NC(=O)c3ccncc3)ccc2O[C@H]1CN(C)S(=O)(=O)c1cccs1
  UUG fidelity = -12.2	HIV Env fusion = -0.5[16.7 µM]

# Rewritten with the structure last: four of the compounds above.
UUG fidelity | HIV Env fusion | SMILES
-5.3 | 23.3[16.7 µM] | C[C@H](CO)N1C[C@H](C)[C@@H](CN(C)C(=O)NC2CCCCC2)OCCCC[C@H](C)Oc2ccc(NC(=O)Nc3ccccc3)cc2C1=O
5.6 | 2.3[16.7 µM] | CO[C@H]1CN(C)C(=O)c2cc(NS(=O)(=O)CC(F)(F)F)ccc2OC[C@@H](C)N(C)C[C@H]1C
1.4 | -1.4[16.7 µM] | COC(=O)c1c2oc(c1C(=O)OC)C(=O)N(C)Cc1cn(nn1)C[C@@H](C)NC(=O)N[C@H](CO)CC2
-9.5 | 14.4[16.7 µM] | CN1C(=O)c2cc(NC(=O)C3CCOCC3)ccc2OC[C@H]2O[C@@H](CC(=O)O)CC[C@@H]21

# The listing continues:
compound: C[C@@H]1CN([C@H](C)CO)C(=O)c2cc(-c3ccncc3)cnc2O[C@H]1CN(C)C(=O)C1CC1
  UUG fidelity = 1.4	HIV Env fusion = -13.4[16.7 µM]

compound: C[C@@H]1CCCCO[C@H](CN(C)S(C)(=O)=O)[C@@H](C)CN([C@@H](C)CO)C(=O)c2cc(NC(=O)Nc3ccc4c(c3)OCO4)ccc2O1
  UUG fidelity = 11.2	HIV Env fusion = 24.9[16.7 µM]

compound: CC(=O)N(C)C[C@@H]1Oc2cc(-c3ccc(F)cc3)ccc2S(=O)(=O)N([C@H](C)CO)C[C@@H]1C
  UUG fidelity = -4.5	HIV Env fusion = -6.9[16.7 µM]

compound: CNC[C@@H]1Oc2ccc(NC(=O)C3CCCCC3)cc2C(=O)N([C@H](C)CO)C[C@H]1C
  UUG fidelity = 11.7	HIV Env fusion = -9.9[16.7 µM]

compound: CCCNC(=O)N[C@@H]1CC[C@H](CCn2cc(C3CCCC3)nn2)O[C@H]1CO
  UUG fidelity = -3.6	HIV Env fusion = -0.2[16.7 µM]

compound: C[C@@H]1CCCCO[C@@H](CN(C)C(=O)Nc2ccc(C(F)(F)F)cc2)[C@H](C)CN([C@H](C)CO)C(=O)c2cc(NC(=O)Nc3cccc4ccccc34)ccc2O1
  UUG fidelity = -15.2	HIV Env fusion = 4.5[16.7 µM]

# HIV Env fusion: entries above that show a hit.
compound: N#C[C@H]1[C@H](c2ccc(C#CC3CCCC3)cc2)[C@@H](CO)N1C(=O)Nc1ccc(F)cc1
  UUG fidelity = -18.8	HIV Env fusion = 55.6*[16.7 µM]

# Compound activity (PubChem)
